Screens: PubChem BioAssay, Johns Hopkins Ion Channel Center
KCNQ2 block – KCNQ2 potassium channel inhibitors, primary screen, cell-based, CHO-K1, FluxOR thallium flux, B-score (AID 2156) | Potassium voltage-gated channel subfamily KQT member 2 (Rattus norvegicus), O88943 | B-score at 10 µM | 310,000 compounds, 1.1% hits | 20 min; stronger effect = lower value; only compounds with negative scores are shown here; some inactives read as strong as hits;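 active = fluorescence ratio B-score at most minus 3 library SDs, with starting brightness B-score within 2 library SDs, cut at about -5.5 in these data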
Target sequence (O88943 whole entry, looked up): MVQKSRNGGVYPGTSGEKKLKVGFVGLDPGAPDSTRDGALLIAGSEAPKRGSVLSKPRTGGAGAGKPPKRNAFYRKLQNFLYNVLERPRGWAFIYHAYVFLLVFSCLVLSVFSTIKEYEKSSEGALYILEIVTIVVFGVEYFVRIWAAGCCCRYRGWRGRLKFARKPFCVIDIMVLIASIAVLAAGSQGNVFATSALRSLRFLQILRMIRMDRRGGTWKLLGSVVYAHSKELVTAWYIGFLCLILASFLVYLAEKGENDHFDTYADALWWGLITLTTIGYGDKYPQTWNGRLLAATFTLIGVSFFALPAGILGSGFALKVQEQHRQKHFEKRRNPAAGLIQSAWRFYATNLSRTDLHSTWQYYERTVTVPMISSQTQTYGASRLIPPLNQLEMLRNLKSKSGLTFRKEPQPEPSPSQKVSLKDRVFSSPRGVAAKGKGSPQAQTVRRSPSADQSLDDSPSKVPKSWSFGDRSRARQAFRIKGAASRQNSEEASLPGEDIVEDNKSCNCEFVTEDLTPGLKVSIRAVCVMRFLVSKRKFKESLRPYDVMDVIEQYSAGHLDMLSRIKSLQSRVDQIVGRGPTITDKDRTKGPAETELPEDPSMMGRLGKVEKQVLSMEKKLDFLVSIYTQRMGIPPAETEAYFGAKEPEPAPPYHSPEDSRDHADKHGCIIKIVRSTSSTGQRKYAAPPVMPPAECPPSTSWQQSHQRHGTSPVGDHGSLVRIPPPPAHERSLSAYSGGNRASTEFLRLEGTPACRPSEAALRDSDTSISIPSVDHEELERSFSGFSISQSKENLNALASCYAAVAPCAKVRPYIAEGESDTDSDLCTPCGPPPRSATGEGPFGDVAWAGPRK
KCNQ2 block baseline – second read-out of KCNQ2 block, no call of its own (marks repeat the call); B-score; measured here: initial fluorescence intensity artifact check;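 brightness before thallium and not channel activity; 0 = typical well and far values either way flag optical interference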
* hit, by the source's call; i = inactive.

Values in the order: KCNQ2 block, KCNQ2 block baseline
> COc1ccccc1/C=N/NC(=O)c1cc2c(ccc3ccccc32)o1
→ -6.4*, -1.8*
> COC(=O)[C@@H]1C[C@@]2(O)[C@H](O)[C@H](O)[C@H](O)C[C@H]2N1Cc1ccc(C(C)(C)C)cc1
→ i, 0.02
> COc1ccc2c(c1)C1(Nc3ccccc3-c3nc4ccccc4n31)C(=O)N2C (stereo unspecified)
→ i, -0.05
> O=C(Nc1ccccc1Cl)c1ccc(Cl)cc1Cl
→ i, 3.5
> Cc1ccc(S(=O)(=O)Nc2ccc(C(=O)NCc3ccncc3)cc2)cc1
→ i, 0.87
> Cc1ccc(S(=O)(=O)N2CCOCC2)cc1NC(=O)C1CC(=O)N(c2ccc3c(c2)OCCO3)C1 (stereo unspecified)
→ i, -0.1
> CCCC(=O)Nn1cnc2c(c1=O)C1(CCCC1)Cc1ccccc1-2
→ i, 0.83
> COc1ccc(CCNC(=S)NCc2cccs2)cc1OC
→ i, 0.01
> O=c1cc2c(n[nH]1)CCCC2
→ i, 0.77
> CC1=C(C(=O)OCc2ccc3c(c2)OCO3)C(c2cccc([N+](=O)[O-])c2)NC(=O)N1 (stereo unspecified)
→ i, 0.83
> Cc1cccc2sc(NC(=O)CN3C(=O)C4CC=CCC4C3=O)nc12 (stereo unspecified)
→ i, -2.1
> CCc1nnc(NS(=O)(=O)c2ccc(NC(=S)NC(=O)c3cccnc3)cc2)s1
→ i, -1.6
> COc1ccc(N(CC(=O)Nc2cc(Cl)ccc2OC)S(=O)(=O)c2c(C)[nH]c(=O)[nH]c2=O)cc1
→ i, 2.2
> CC(C)(C)c1ccccc1NC(=O)Cn1cnc2cc([N+](=O)[O-])ccc2c1=O
→ i, 0.8
> CC(=O)NC1=NN(C(C)=O)C(C)(CS(=O)(=O)c2ccc(Cl)cc2)S1 (stereo unspecified)
→ i, 2.1
> COc1ccc2sc(N(CCCN(C)C)C(=O)c3nc4ccccc4s3)nc2c1
→ i, 0.88
> O=C1CCC(C(=O)N2CCC(O)CC2)CN1CCc1ccc(Cl)cc1 (stereo unspecified)
→ i, 0.05
> C=C(C)c1cccc(C(C)(C)NC(=O)N2CCN(c3ccccn3)CC2)c1
→ i, 1.3
> O=C(CCc1ccccc1)Nc1ccccc1C(=O)NCc1ccco1
→ i, -1.4
> CCNC(=O)CSc1nc2ccccc2c(=O)n1CCCOC(C)C
→ i, 1
> COc1ccc(C2=C(N)c3ccccc3C2=O)cc1
→ i, 2.7
> CCCNC(=O)c1c(N)n(-c2cccc(OC)c2)c2nc3ccccc3nc12
→ i, 0.65
> COc1cccc(N2C(=O)C3CCCN3C2c2ccc(N(C)C)cc2)c1 (stereo unspecified)
→ i, 0.01
> CC1(C)CC(=O)C2=C(C1)OC(N)=C(C#N)C2Cc1ccccc1 (stereo unspecified)
→ i, 0.96
> COC(=O)[C@H](CC(C)C)NCc1cccc(CN[C@@H](CC(C)C)C(=O)OC)c1
→ i, 0.7
> O=C(Cc1ccccc1)NC(NC(=S)Nc1cc(Cl)ccc1Cl)C(Cl)(Cl)Cl (stereo unspecified)
→ i, -0.22
> CC12CC3CC(C)(C1)CC(C(O)CN1CCOCC1)(C3)C2 (stereo unspecified)
→ i, 0.61
> Cc1c(NC(=O)C(C)OC(=O)CNC(=O)c2ccccc2)c(=O)n(-c2ccccc2)n1C (stereo unspecified)
→ i, 0.75
> COc1ccc(CN2C(=O)CC(Cc3cc(C)cc(C)c3)C2=O)cc1OC (stereo unspecified)
→ i, -0.05
> COc1ccc(CCN(Cc2ccccn2)C(=S)Nc2cccc(C)c2)cc1OC
→ i, -0.58

Remaining list, next part
Values in the order: KCNQ2 block, KCNQ2 block baseline
> CC(Nc1ccc(Br)cc1)C(=O)N/N=C/c1ccccc1OCc1ccccc1 (stereo unspecified)
→ i, -1
> Cc1ccc(C(=O)CCC(=O)NC2CCCC(C)C2C)cc1 (stereo unspecified)
→ i, 1.3
> CC(C)(C)c1cc(NCc2ccccn2)n2ncc(-c3ccccc3)c2n1
→ i, 0.05
> COCCCNCCOCCOc1ccc(Cl)cc1Br
→ i, 0.5
> N#CC1=C(N)Oc2n[nH]c(-c3ccccc3)c2C1c1cccnc1 (stereo unspecified)
→ i, -0.99
> CC(C)CC(COCc1ccc([N+](=O)[O-])cc1)N1CCN(C(=O)c2ccc(C(F)(F)F)cc2)CCC1=O (stereo unspecified)
→ i, 1.2
> CCC(CC)c1nnc(NC(=O)c2nn(C)c(=O)c3ccccc23)s1
→ i, 0.92
> CC1CCN(C(=O)c2[nH]cnc2C(=O)N[C@@H](CCCCNC(=O)OC(C)(C)C)C(=O)OC(C)(C)C)CC1
→ i, -2.1
> CC1CCCC(C)N1C(=O)CSc1nnc(C2CCCCC2)o1 (stereo unspecified)
→ i, 0.11
> CNC(=O)COc1coc(CN2CCN(c3ccccc3)CC2)cc1=O
→ i, -2.9
> CCN(CC)c1ccc(NC(=O)c2cccc(C)c2)cc1S(=O)(=O)Nc1ccccc1OC
→ i, -0.82
> CC1=C/C(=C\c2ccc3c(c2)OCO3)C(=O)S1
→ i, -0.11
> COc1ccc2[nH]c(=O)c(-c3nnn(-c4ccc(F)cc4)n3)cc2c1
→ i, 1.7
> CSc1ccccc1NC(=O)CN(C)CC(=O)Nc1ccc(Cl)cc1[N+](=O)[O-]
→ i, 0.27
> O=C(Cc1ccc(Cl)cc1)NNC(=S)NC(=O)c1cccnc1
→ i, -0.18
> Cc1cccc(N(C)S(=O)(=O)c2ccc(-c3cnc(C4CC4)o3)cc2)c1
→ -9.9*, -0.46*
> CCOc1ccc(OCC)c(NC(=O)C2CCN(S(=O)(=O)c3ccc4c(c3)CC(C)N4C(C)=O)CC2)c1 (stereo unspecified)
→ i, 0.04
> CC(=O)Nc1ccc(NC(=O)C(C)OC(=O)/C(C#N)=C/c2ccc(N(C)C)cc2)cc1 (stereo unspecified)
→ i, 15
> COc1ccccc1Nc1ccc(N)cc1
→ i, -1
> CCOC(=O)N1CCN(C(=O)c2ccc3c(c2)N(CC)CCS3)CC1
→ i, -0.06
> CCCCCCCCC[n+]1cccc2c3ccccc3ccc21
→ i, -0.78
> COc1ccc(CCNC(=O)c2noc(C)c2[N+](=O)[O-])cc1OC
→ i, 0.97
> CCN(CCC(=O)O)c1ccccc1
→ i, 0.34
> CC(C)(C)c1cc(/C=N/NC(=O)C[n+]2ccccc2)cc(C(C)(C)C)c1O
→ i, 0.22
> CCOc1ccc(NC(=S)NNC(=O)c2cc(Br)ccc2Cl)cc1
→ i, 0.27
> Cc1ccc(-c2nc(CS(=O)(=O)CC(=O)NC3CCCCCC3)c(C)o2)cc1
→ i, 0.8
> O=C(CSc1nc(=O)n2ccccc2n1)N1CCC(Cc2ccccc2)CC1
→ i, -0.32
> N#C/C(C(=O)N1CCOCC1)=C1/SC(Cc2ccccc2)C(=O)N1c1ccccc1 (stereo unspecified)
→ i, -0.3
> CCC(=O)Nc1c(-c2ccccc2)c(=O)c2ccccc2n1C
→ i, -1.8
> Cc1ccc(/C=N/NC(=O)c2ccccc2OCc2ccc(F)cc2)o1
→ i, 0.02

The final seven entries of the section above are carried over, then new ones follow:
Values in the order: KCNQ2 block, KCNQ2 block baseline
> CC(C)(C)c1cc(/C=N/NC(=O)C[n+]2ccccc2)cc(C(C)(C)C)c1O
→ i, 0.22
> CCOc1ccc(NC(=S)NNC(=O)c2cc(Br)ccc2Cl)cc1
→ i, 0.27
> Cc1ccc(-c2nc(CS(=O)(=O)CC(=O)NC3CCCCCC3)c(C)o2)cc1
→ i, 0.8
> O=C(CSc1nc(=O)n2ccccc2n1)N1CCC(Cc2ccccc2)CC1
→ i, -0.32
> N#C/C(C(=O)N1CCOCC1)=C1/SC(Cc2ccccc2)C(=O)N1c1ccccc1 (stereo unspecified)
→ i, -0.3
> CCC(=O)Nc1c(-c2ccccc2)c(=O)c2ccccc2n1C
→ i, -1.8
> Cc1ccc(/C=N/NC(=O)c2ccccc2OCc2ccc(F)cc2)o1
→ i, 0.02
> COc1cccc2c1Oc1ncccc1N(C(=O)CCC(=O)NCc1ccccc1F)C2
→ i, -1.5
> N#C/C(=C\c1c(N2CCC(C(N)=O)CC2)nc2ccccn2c1=O)C(=O)NCc1ccco1
→ i, 2.6
> CCCCCCOC(=O)Cc1c(C)nc(-c2ccccc2)[nH]c1=O
→ i, -0.4
> COc1cccc(-c2nn(-c3ccccc3)cc2CN(C)Cc2ccno2)c1
→ i, -0.25
> Cn1c(CCNC(=O)c2ccccc2F)nnc1SCC(=O)Nc1ccccc1F
→ i, 0.24
> Cc1nn(C2CCCO2)c(=O)nc1N (stereo unspecified)
→ i, 0.05
> Cc1ccc(C)c(OCc2nnc(NC(=O)c3ccco3)s2)c1
→ i, -0.1
> Cc1oc2c(c1C(=O)Nc1cccc3ccccc13)CCCC2
→ i, 0.02
> Cc1ccc(N2C(=O)CC(N3CCN(c4ccc(F)cc4)CC3)C2=O)c(C)c1 (stereo unspecified)
→ i, 2.9
> O=C(COc1cccc(Br)c1)N/N=C1\CCSC1
→ i, -3.4
> COC(=O)C1CCN(C(=O)COC(=O)CSc2ccc(C(N)=O)cc2[N+](=O)[O-])CC1
→ i, 1.3
> CCOC(=O)N1CCC(NC(=O)c2ccc(Cl)cc2)CC1
→ i, -0.01
> O=C(Nc1ccccc1C(=O)NCC1CCCO1)c1ccc(Cl)cc1 (stereo unspecified)
→ i, 2.4
> Cc1nnc(N2C(=O)C(O)=C(C(=O)c3ccco3)C2c2ccc(C(C)C)cc2)s1 (stereo unspecified)
→ i, 4.9
> CCCn1c(SCC(=O)NC(C)C23CC4CC(CC(C4)C2)C3)n[nH]c1=O (stereo unspecified)
→ i, -1.4
> CS(=O)(=O)N1CCc2cc(-c3csc(NCC4CCCO4)n3)ccc21 (stereo unspecified)
→ i, -0.19
> COc1ccc(Cl)cc1NC(=O)CSc1nc2sccc2c(=O)[nH]1
→ i, -1.4
> Cc1sc2nc(CSCC(=O)NC3CCCCC3)[nH]c(=O)c2c1C
→ i, 0.63
> COC(=O)c1ccc(NCC(=O)c2ccccc2)cc1
→ i, 2.1
> Cc1cc(C(=O)Nc2cc(C(F)(F)F)ccc2N2CCOCC2)no1
→ i, -0.19
> O=C(COc1ccc(F)cc1)Nc1cc(Cl)ccc1-n1cncn1
→ i, -0.9
> COc1ccc(Cl)cc1NC(=O)C(C)Sc1nncn1C (stereo unspecified)
→ i, 0.03
> O=C(CNCCCO)Nc1cc(C(F)(F)F)cc(NC(=O)CNCCCO)c1Cl
→ i, 0.75
> CCOc1ccc(CC(=O)N/N=C/c2cccnc2)cc1OCC
→ i, 0.92
> CCN(CC)CCn1c(=N)n(CC(O)COc2cccc(C)c2)c2ccccc21 (stereo unspecified)
→ i, -0.72
> COC(=O)c1ccc2c(c1)sc(=NC(=O)CCS(=O)(=O)c1ccccc1)n2C
→ i, 0.68
> O=C(CCCCCN1C(=O)c2cccc([N+](=O)[O-])c2C1=O)Nc1ccccc1F
→ i, 0.24
> Cc1cc(NC(=O)CSc2nnc(C3CC3)n2N)no1
→ i, 0.25
> CC(=O)Nc1ccc(NC(=O)CN(C)S(=O)(=O)c2ccc3ccccc3c2)cc1
→ i, 1
> Cc1ccc([N+](=O)[O-])cc1NC(=S)NC(=O)c1cccnc1
→ i, -0.6

The list continues.
Values in the order: KCNQ2 block, KCNQ2 block baseline
> COc1cc(NS(=O)(=O)c2cc3c(cc2C)NC(=O)CO3)cc(OC)c1
→ i, 0.05
> N#Cc1ccccc1Sc1ccccc1C(=O)Nc1ccc(Br)cc1
→ i, 2.2
> COc1ccc(N2C(=O)CC(N(Cc3ccco3)C(=O)CCC(=O)O)C2=O)cc1 (stereo unspecified)
→ i, 0.09
> COC(=O)CSc1nc(N)c(C#N)c(-c2ccco2)c1C#N
→ i, 0.11
> O=C(CCNS(=O)(=O)c1cccc2nsnc12)NCc1ccccc1
→ i, -0.55
> Cc1ccc(NC(=O)CCNS(=O)(=O)c2ccc3c(c2)c(=O)n(C)c(=O)n3C)cc1C
→ i, -0.57
> CCOC(=O)/C(C#N)=C1/C=CN(C)C=N1
→ i, 2.4
> O=C(NCc1ccccc1Cl)C1CCCN1C(=O)NC1CCCCC1 (stereo unspecified)
→ i, -0.06
> CCOc1cnc(-c2ccc(Cl)cc2)o1
→ i, 0.01
> O=C(CSc1ncn[nH]1)Nc1ccc(Cl)c(Cl)c1
→ i, 1.3
> Cc1cc(Cl)nc(Cl)c1C(=O)N1CCOCC1
→ i, -0.29
> Cc1cc(Oc2ccccc2)nc(-c2ccccc2)n1
→ i, -1.3
> COC(=O)c1c(C(=O)OC)c(-c2ccccc2)n2c1CS(=O)(=O)C2
→ i, -0.24
> CCCOC(=O)C(=O)NNc1ccccc1
→ i, -0.04
> CCCCOc1ccc(/C=C/C(=O)OCC(=O)NC2CCS(=O)(=O)C2)cc1OCC (stereo unspecified)
→ i, 1.2
> Cc1ccc(S(=O)(=O)Nc2cc(C)cn(Cc3ccccc3)c2=O)cc1
→ i, -0.32
> O=C(Nc1nc2ccc([N+](=O)[O-])cc2s1)c1ccc(S(=O)(=O)N2CCCc3ccccc32)cc1
→ i, -0.39
> C/C(N)=C(/C#N)C(=O)CSc1nc2scc(-c3ccc(F)cc3)c2c(=O)n1C
→ i, 0.65
> CN1CCN(C(=O)CCCN2C(=O)/C(=C/c3cccc(Br)c3)SC2=S)CC1
→ i, 0.55
> CCOC1(c2ccccc2)CC1C(=O)N/N=C/c1cccc([N+](=O)[O-])c1 (stereo unspecified)
→ i, -0.02
> Cc1cc(C(F)(F)F)nc(SCC(=O)Nc2cc(C)on2)n1
→ i, 0.58
> CC1CCN(C(C(=O)NC2CCCCC2)c2cc3c(cc2[N+](=O)[O-])OCO3)CC1 (stereo unspecified)
→ i, 1.5
> CSc1ncc(CN2CCCC(C(=O)Nc3ccc(-c4ccco4)cc3)C2)cn1 (stereo unspecified)
→ i, 1.4

In the list so far, these have a COOH group.
Values in the order: KCNQ2 block, KCNQ2 block baseline
> CCN(CCC(=O)O)c1ccccc1
→ i, 0.34
> COc1ccc(N2C(=O)CC(N(Cc3ccco3)C(=O)CCC(=O)O)C2=O)cc1 (stereo unspecified)
→ i, 0.09

Not all compounds are listed; the hit share may differ from the screen's.
